Bioassay records as filed in PubChem.
Prx2 Sm inh = Schistosoma Mansoni Peroxiredoxins (Prx2); Schistosoma mansoni peroxiredoxin 2 (Prx2); S. mansoni Prx2 activity coupled to TGR/GSH (TGR is thioredoxin glutathione reductase), NADPH fluorescence loss, qHTS; some inactives read as strong as hits; Potency, µM; hit rate 0.07% among 65,000; AID 448, 2006; active means full or partial inhibition curve with a strong effect at the top dose; inconclusive means weaker partial or single-point curve; inactive means no accepted curve; note: series up to 57 µM; many of its hits are not listed in these tables
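Activity is read as the drop in NADPH fluorescence (365/450 nm), recorded every 30 sec for 8 min after H2O2 addition. Prx2 is coupled to TGR-driven NADPH oxidation through glutathione, in phosphate buffer pH 7.4.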
LT uptake inh = qHTS Assay for Anthrax Lethal Toxin Internalization | Cells, anthrax lethal toxin internalization, FRET ratio (460/530) | Potency, µM (titrated, usually from 40 µM), for inactives: at the top dose activity change, negative = inhibition, actives largely listed as inhibitors | hit rate 0.67% among 70,000 | AID 912, 2007; active = well fitted falling ratio curve with the 530 nm signal flat; inconclusive = other ratio curves, or a change in one channel alone; inactive = flat curves in the ratio and both channels; the % refers to the ratio; note: % is set by controls: 0 for no effect and ±100 for the full control effect; nearly all actives have a fitted effect of over 50% in size; tested in ME-180 cells; beta-lactamase reporter
An asterisk follows results filed as active; ? = inconclusive; / = not tested or not shown; & = joins results of further samples; [ ] = another dose, or the depositor's remark. Potency is the fitted concentration of half-maximal effect.

#	molecule	Prx2 Sm inh	LT uptake inh
1	COC(=O)c1ccc(C(NC(=O)OCc2ccccc2)/C(=C/[C@@H](C)C(=O)N(C)Cc2cccnc2)c2cccnc2)cc1 (some centres undefined)	/	-13%
2	CC(=O)c1cc(Cl)ccc1OC(=O)c1ccco1	/	-8%
3	COC(=O)C1=C(C)N(Cc2ccccc2)[C@]23O[C@](C(=O)OC)(C(=O)N2C1c1ccccc1)C1C(=O)N(C)C(=O)C13 (some centres undefined)	/	-7%&-8%[8 µM]
4	COc1ccc(C(=O)NCCn2cc(SCC(=O)N3CCOCC3)c3ccccc32)cc1	>57	?
5	CS(=O)(=O)c1ccc(/C=N\NC(N)=S)cc1	>57	0%[8 µM]
6	Cc1cc(NC(=O)c2cccc(S(=O)(=O)N3CCCC3)c2)no1	>57	5%
7	O=c1[nH]c2[nH]c(=S)[nH]c(=S)c2[nH]1	>57	-10%[8 µM]
8	C[C@@H]1CC2(OC(O)[C@]3(C)O[C@H]23)O[C@H]2C[C@@]3(C)[C@@H]4CC[C@H]5C(C)(C)C(O[C@@H]6OC[C@@H](O)[C@H](O)[C@H]6O)CC[C@@]56C[C@@]46CC[C@]3(C)[C@@H]12 (some centres undefined)	/	?
9	OC(CNCc1ccco1)COc1ccccc1 (centres undefined)	/	-19%
10	C[C@@H](CC(=O)O)[C@@H](N)C(=O)O	>57	2%

Compounds shown so far containing a furan ring, fused or not:
#	molecule	Prx2 Sm inh	LT uptake inh
2	CC(=O)c1cc(Cl)ccc1OC(=O)c1ccco1	/	-8%
9	OC(CNCc1ccco1)COc1ccccc1 (centres undefined)	/	-19%

Next part
#	molecule	Prx2 Sm inh	LT uptake inh
11	CN(C(=O)Cc1ccc(Cl)c(Cl)c1)[C@H](CN1CCCC1)c1ccccc1	>57	?
12	Cc1cccc(N(C)C(=O)CCS(=O)(=O)c2cccc3nonc23)c1	>57	-4%
13	CCOC(=O)C1=C(O)C(=O)N(c2ccc(S(N)(=O)=O)cc2)C1c1ccc(OC)cc1 (centres undefined)	>57	-1%
14	O=C(O)CSSCC(=O)O	>57	?
15	COc1cccc2cc(C(=O)C3=C(O)C(=O)N(CCCN(C)C)C3c3ccncc3)oc12 (centres undefined)	>57	0%
16	Cc1[nH]c(=O)[nH]c(=O)c1S(=O)(=O)NCC12CC3CC(CC(C3)C1)C2	>57	-3%
17	COc1cccc(-c2cc(C(=O)N3CCCCC3C)no2)c1 (centres undefined)	>57	7%
18	Fc1ccccc1C(c1nnnn1Cc1ccc2c(c1)OCO2)N1CCN(Cc2ccco2)CC1 (centres undefined)	>57	-1%
19	COc1ccc(N(CC(=O)N2CCc3ccccc32)S(=O)(=O)c2c(C)n[nH]c2C)cc1	>57	20%
20	O[C@H](c1cc(C(F)(F)F)nc2c(C(F)(F)F)cccc12)[C@H]1CCCCN1	>57	0%[3.58 µM]
21	Nc1ccccc1NC(=O)c1ccccc1N	>57	?
22	O=C(O)CSc1nnc(CNc2cccc(C(F)(F)F)c2)n1Cc1ccco1	>57	-15%
23	CCOc1ccccc1Nc1ncccc1C(=O)N1CCCC1	>57	12%
24	Cc1c(NC(=O)C2(c3ccccc3)CCOCC2)c(=O)n(-c2ccccc2)n1C	>57	-3%
25	O=C(CSc1nnc(-c2cccc(S(=O)(=O)N3CCCCC3)c2)o1)c1ccc[nH]1	>57	?
26	c1ccc(-c2noc(-c3cccc4ccccc34)n2)nc1	>57	/
27	COc1ccc(Cc2nnc(Nc3ccc(C)cc3C)[nH]c2=O)cc1	>57	-1%
28	CN1CCN(C(=O)c2ccc(CN3CCOCC3)cc2)CC1	/	-4%
29	Cn1c(=O)c2c(SCc3cccc(C(F)(F)F)c3)nc(-c3ccco3)nc2n(C)c1=O	>57	-4%
30	O=C(Nc1ccccn1)NC12CC3CC(CC(C3)C1)C2	>57	12%
31	O=c1c(-c2ccccc2)nc2cnc(N3CCNCC3)nc2n1C1CC1	>57	?
32	N=c1n(-c2ccccc2)c(O)cc(=O)n1-c1ccccc1	/	-5%
33	CCCCN(CCCC)S(=O)(=O)c1ccc(OC)c2ncccc12	>57	3%
34	O=C1CC(c2ccccc2)n2nc(NC(=O)c3ccccn3)nc2N1 (centres undefined)	>57	?
35	CCOc1ccc(-n2c(Cc3cc(=O)[nH]c(=O)[nH]3)nnc2SCC)cc1	>57	-9%
36	Cc1cc2ccccc2n1CCNC(=O)c1cccs1	>57	?
37	Cc1cc(Cl)ccc1OCC(=O)NCCCN1CCOCC1	>57	?
38	CCOC(=O)N1CCN(C(=O)CSCC(=O)Nc2nc(-c3cccs3)cs2)CC1	>57	-9%
39	O=C(Nc1cccc(F)c1)NC1CCCCC1	>57	-8%
40	CC(=O)N=c1ncn(CC(COC(C)=O)OC(C)=O)c2nc[nH]c12 (centres undefined)	>57	?
41	CN(CCNC(=O)CCNC(=O)Cn1ccc2ccccc2c1=O)Cc1ccccc1	>57	9%
42	O=C(CSc1nnc(-c2ccccc2)o1)N1CCc2ccccc2C1	>57	-10%
43	CCOC(=O)c1c(NC(=O)CSc2nnnn2C)sc(C)c1-c1ccc(C)cc1	>57	-29%
44	CCCC[C@@H]1C[C@H]1C(NC(=O)c1ccccc1)c1ccccc1C(F)(F)F (some centres undefined)	>57	-4%
45	COc1ccc(NC(=O)c2ccc(N(C)S(C)(=O)=O)cc2)cc1OC	>57	-26%
46	COc1cccc(-c2nc(NCc3cccnc3)c3ccccc3n2)c1	>57	-20%
47	CCc1ccccc1NC(=O)CN1CCC(NC(=O)COC)CC1	>57	1%
48	O=C(O)c1ccc(C(=O)c2ccccc2)c(C(=O)O)c1	>57	13%[8 µM]
49	COc1ccc(N2CCN(C(=O)c3cc4c(-c5cccc(OC)c5)nn(C)c4s3)CC2)cc1	>57	-17%
50	COCCSc1nc2c(c(=O)[nH]c(=O)n2C)n1Cc1cccc(C)c1	>57	-9%
51	N[C@H](C(=O)O)C1[C@H](C(=O)O)[C@H]1C(=O)O (some centres undefined)	>57	0%
52	COC(=O)c1cc(Cl)c(N)cc1OC	>57	/
53	CCOC(=O)c1ccc2c(c1)N(CC(=O)N1CCCC1)C(=O)C(C)(C)O2	>57	10%
54	O=S1(=O)CCN2C(c3ccc4c(c3)CCCC4)=CSC2=N1	>57	?
55	COCCNS(=O)(=O)c1ccc(-c2ccc(S(=O)(=O)NCCOC)cc2)cc1	>57	10%
56	Cc1[nH]nc2c1C(c1ccc(Cl)cc1)C(C#N)=C(N)O2 (centres undefined)	>57	-3%
57	CCOC(=O)NC(CC(=O)O)c1ccc(OC)cc1 (centres undefined)	>57	8%
58	C[C@@H](COc1ccccc1)N(CCCl)Cc1ccccc1	>26	?
59	Cc1ccccc1N1C(=O)C(Cl)=C(N2CCCCCC2)C1=O	/	?
60	CCCc1nnc(SCC(=O)N2CCOCC2)n1Cc1ccco1	>57	6%

Next structures
#	molecule	Prx2 Sm inh	LT uptake inh
61	COc1cccc(C=NC=Nc2cccc(OC)c2)c1	>57	?
62	COC(=O)C/C=C1\c2ccccc2C(OC)C1C (centres undefined)	/	-12%[8 µM]
63	C=CCn1c(SCC(=O)Nc2ccc3c(c2)OCO3)nnc1-c1ccccc1OC	>57	?
64	COCCn1c(=S)[nH]c2cc(C(=O)N3CCN(c4ccccc4OC)CC3)ccc2c1=O	>57	-11%
65	O=C(CN1CCN(C(=O)c2ccco2)CC1)Nc1ccccc1-c1ccccc1	/	-6%
66	COC(=O)c1[nH]c2ccccc2c1NC(=O)CCN1CCSCC1	>57	-20%
67	COc1ccc(Nc2ncnc3c2cnn3Cc2ccccc2)cc1OC	>57	-2%
68	Cc1nnc(Nc2ccc(C(=O)N3CCOCC3)cc2)c2ccccc12	>57	8%
69	COC(=O)COc1ccc(S(=O)(=O)Nc2ccc(C(N)=O)cc2)cc1Cl	>57	?
70	Cc1ccc(S(=O)(=O)N2CCCN(S(=O)(=O)c3ccc4c(c3)OCCO4)CC2)cc1	>57	-8%

Full records, looked up by structure.
Listed for COc1ccc(Nc2ncnc3c2cnn3Cc2ccccc2)cc1OC = Prx2 Sm inh = >57; LT uptake inh = -2%
Listed for Cc1nnc(Nc2ccc(C(=O)N3CCOCC3)cc2)c2ccccc12 = Prx2 Sm inh = >57; LT uptake inh = 8%

Following part.
#	molecule	Prx2 Sm inh	LT uptake inh
71	O=C1C=C[C@@H](O)[C@H]2[C@@H]3C(=O)N(C[C@@H]4CCCO4)C(=O)[C@@H]3CC[C@H]12	/	-2%[8 µM]
72	COc1ccccc1S(=O)(=O)Cc1ccc(C(=O)N2CCN(c3ccc(C)cc3)C(C)C2)o1 (centres undefined)	>57	?
73	O=c1cnc2cnc(Oc3ccccc3)nc2n1Cc1ccc(F)cc1	>57	-5%
74	Cc1cc2c(c(=O)n1CCN(C)C)C(c1ccccc1Br)C(C#N)=C(N)O2 (centres undefined)	>57	12%
75	CCOC(=O)C1CCCN(C(=O)CNS(=O)(=O)c2ccc(Br)s2)C1 (centres undefined)	>57	2%
76	Cn1c(N)c(C(=O)COC(=O)c2ccco2)c(=O)n(C)c1=O	>57	7%
77	CCn1c2ccccc2c2cc(NC(=O)COC(=O)C3CCC(=O)N3)ccc21 (centres undefined)	>57	-24%
78	O=c1cc(N2CCN(c3cccc(Cl)c3)CC2)[nH]c(=O)n1C1CCCCC1	>57	8%
79	Cc1cc2nc(-c3ccco3)cc(C(F)(F)F)n2n1	>57	-11%
80	CCOCc1nnc(NC(=O)c2cccs2)s1	>57	11%
81	CCSc1nc2c(c(=O)[nH]c(=O)n2C)n1Cc1ccc(Cl)cc1	>57	-3%
82	Cc1c(-c2ccccc2)oc2c(C(=O)OCCN3CCCCC3)cccc2c1=O	>57	5%[3.58 µM]
83	CNc1nc(SCc2ccccc2)nc(N2CCOCC2)n1	>57	-14%
84	O=P(c1cccs1)(c1cccs1)c1cccs1	>57	5%
85	COc1ccc(S(=O)(=O)C(C#N)c2nc3ccccc3nc2N2CCCCC2)cc1 (centres undefined)	>57	-7%
86	C/C(Cl)=C/Cn1c(SC(C)C)nc2c1c(=O)[nH]c(=O)n2C	>57	2%
87	Cc1ccc(S(=O)(=O)NCC(=O)N(CC(=O)NCC2CCCO2)C2CCCC2)cc1 (centres undefined)	>57	-5%
88	O=C(CN1C(=O)CCS(=O)(=O)c2ccccc21)NCc1ccccc1	>57	-10%
89	CCOc1ccc(C(=O)Nc2nnc(C)s2)cc1OCC	/	2%
90	CCOC(=O)CN1C(=O)C(O)(CC(=O)c2ccco2)c2ccccc21 (centres undefined)	>57	-2%
91	CC1(C)Cc2nc(N3CCOCC3)c(C#N)cc2CO1	>57	-10%
92	CCOC(=O)N1CCN(c2c(NCCc3ccc(OCC)c(OCC)c3)c(=O)c2=O)CC1	>57	?
93	O=C(/C=C\c1ccc(O)cc1)c1ccc(O)cc1O	/	-10%
94	COc1ccccc1Nc1nc2ccccc2[nH]1	>57	4%
95	Cc1cc(C)c(C#N)c(SC2CCCCC2=O)n1 (centres undefined)	>57	0%
96	O=C(NC1CC1)C1CCCN1S(=O)(=O)c1ccc2ccccc2c1 (centres undefined)	>57	11%
97	COc1ccc2c(c1)c(=O)oc1cc(OCC(=O)N3CCC(C)CC3)ccc12	>57	-1%
98	COCCn1c(SCC(=O)c2ccccc2)nc2c(c1=O)SC(C)C2 (centres undefined)	>57	2%
99	Cn1cccc1C(=O)OCC(=O)Nc1ccc2c(c1)CCC2	>57	-1%
100	O=C(NCCCN1CCOCC1)NC12CC3CC(CC(C3)C1)C2	/	-11%
101	CCOc1ccc(NC(=O)c2oc3ccccc3c2NC(=O)C2CC2)cc1	>57	-22%
102	N#C/C=C1\n2c(nc3ccccc32)OC12CCCCC2	>57	-2%
103	O=S(=O)(c1ccccc1)c1ccc(NCc2ccco2)cc1	/	-3%
104	COc1ccc(N2CCN(/C(=N\S(=O)(=O)c3ccccc3)Nc3nc(C)cc(C)n3)CC2)cc1	/	8%
105	COc1ccc(COC(=O)N/N=C2/C[C@@H](O)[C@@H](O)[C@@H]3[C@@H]4C(=O)N(C5CCCCC5)C(=O)[C@H]4CC[C@@H]23)cc1	/	-3%[8 µM]
106	COc1cccc2cc(C(=O)N3CCN(C/C=C/c4ccccc4)CC3)c(=O)oc12	>57	-12%
107	O=C1C2C3C=CC(C3)C2C(=O)N1CC1CCCO1 (centres undefined)	>57	-6%
108	CCC(=O)N1CCc2cc(S(=O)(=O)CCC(=O)NCc3cccs3)ccc21	>57	?
109	N#Cc1ccccc1-c1ccc2ncnc(NCc3ccccc3)c2c1	>57	2%
110	CCOC(=O)N1CCN(C(=O)c2ccc3c(=O)n(Cc4ccc(Cl)cc4)c(=S)[nH]c3c2)CC1	>57	?
111	CNC(=O)c1ccccc1	/	-1%
112	COC(=O)[C@@]1(Cc2ccc(F)cc2)[C@@H]2C(=CC(=O)[C@H]2CC(=O)C(=O)N2CCCC2)CN1C(=O)c1ccccc1	>57	-27%
113	Cc1ccc(C)c(OCC(O)CN2C(C)CCCC2C)c1 (centres undefined)	>57	?
114	CCOC(=O)c1c(C)[nH]c(C)c1C(=O)CN1C(=O)NC(CC(C)C)C1=O (centres undefined)	>57	-10%
115	CC1(C)CC(=O)C=C(N2CCN(C3=CC(=O)CC(C)(C)C3)CC2)C1	>57	-6%
116	CCC(=O)Nc1ccccc1Oc1ccccc1	>57	-10%

This is a subset, so the mix of outcomes need not match the whole.
